Screens as filed in PubChem.
Sa ugtP lethal = growth inhibition of S. aureus ugtP deletion strain | S. aureus RN4220 ugtP deletion, OD600 growth, 16 h; some inactives read as strong as hits | growth inhibition, % (no concentration beside the values) | actives 0.54% (n = 330,000) | AID 1259309;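 active = z-score under -3 and OD600 up to 0.15 on both plates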;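 note: plate controls were untreated wells for no effect and antibiotic for full effect; wells of about 80 µL received 100 nL stock; the first replicate is given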
PrP 5UTR inh = suppresses PrP 5' UTR mRNA reporter expression; cell-based PrP 5' UTR mRNA reporter, plate reader; inhibition, % (test concentration not listed); actives 0.35% (n = 340,000);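 active = every replicate at 50% or more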;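 note: 0 = median of the neutral control wells; tested in H4 reporter cells; numbers are from one replicate; inactives centre near -14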
Autofluor counter = flagged as autofluorescent in microsphere protease counterscreen | compound autofluorescence counterscreen, microsphere flow cytometry; active compounds read high | fluorescence intensity (test concentration not listed) | actives 3.1% (n = 360,000);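 active = at least 3 SD above the mean of all compounds, about 16000 in these data; inconclusive = too few beads counted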;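 note: 100 nL of 1 mM stock went into each well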
RN4220 kill = kills Staphylococcus aureus RN4220 | inhibition, % (no concentration beside the values) | S. aureus RN4220 growth, OD600, 16 h | AID 1259311 | actives 0.33% (n = 330,000);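 active = z-score of -3 or lower and OD600 up to 0.18 on both plates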;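 note: plate controls were untreated cells for no effect and reference antibiotic for full effect; stock transfer was 100 nL into about 80 µL; one replicate is shown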
BJeLR lethal = kills HRASV12-expressing BJeLR cells | BJeLR (HRASV12) viability, CellTiter-Glo ATP luminescence, 48 h; reference of the scale not given here | inhibition, % (test concentration not listed) | actives 0.17% (n = 300,000) | AID 1554;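 active = replicate mean above 50%; inconclusive = above 50% but judged a plate artefact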;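 note: 50 nL library stock added to about 25 µL; numbers are from one replicate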
Mtb hypoxia inh = Mtb hypoxia fluorescent reporter inhibition; M. tuberculosis hypoxia-regulated fluorescent reporter, fluorescence; fluorescence inhibition, % (no concentration beside the values); actives 0.1% (n = 300,000);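 active = 35 to 45% if threefold the growth effect, above 45% if 1.5-fold the growth effect; inactive = the rest, general growth blockers included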;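 note: wells of about 50 µL received 100 nL stock; 0% = vehicle wells and 100% = reference inhibitor wells; whole bacteria with a GFP reporter of the hypoxia response; strong numbers were not always called active; many hits fall short of the cut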
Mtb hypoxia inh growth = recorded beside Mtb hypoxia inh, whose call it bears; growth inhibition, %; measured here: M. tuberculosis growth (absorbance);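 0% = vehicle and 100% = reference antibiotic; read after six days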
* hit, by the source's call; ? = inconclusive; . = no result given; & = joins results of further samples.

SMILES	Sa ugtP lethal	PrP 5UTR inh	Autofluor counter	RN4220 kill	BJeLR lethal	Mtb hypoxia inh	Mtb hypoxia inh growth
NC(=O)NC(=O)CSc1nc(C2CCCCC2)n(-c2ccccc2)n1	1	-7	2442	10	-9	-4	4
Cc1cccc(N2CCN(C(=O)Cn3ccc4ccccc4c3=O)CC2)c1C	10	-15	4495	-6.6	2	.	.
Cc1cc(Br)ccc1NC(=O)CSc1nnc(CN2CCOCC2)n1C	8	-13	3844	0.5	-2	-4	3
CCc1nnc(NC(=O)CSc2nc(-c3ccccc3)nc3ccccc23)s1	2	-21	2408	3.7	-15	3	2
C/C(=C\C(=O)c1ccc(Br)cc1)NNC(=O)c1ccccc1	3	1	5525	5.7	3	-4	4
Cc1ccccc1N(C(=O)CNC(=O)c1ccco1)C(C(=O)NC1CCCCC1)c1cccnc1 (stereo unspecified)	6	1	3783	3.7	4	-2	-4
CCCCc1ccc(NC(=O)CC(C)(C)C)cc1	10	-69	2677	-1.1	-2	0	6
O=C(Nc1ccccc1C(=O)Nc1ccccc1C(=O)NCc1ccco1)c1ccco1	-19	-6	8239	-1.6	1	8	5
Cc1cc(NC(=O)c2cc(-c3cccnc3)nc3c(C)c(C)ccc23)no1	-7	-12	4859	-7.2	-2	.	.
COc1ccccc1/C=C/C=c1sc2nc(=O)c(Cc3ccccc3)nn2c1=O	-1	.	.	2.2	.	-11	-4
CCOC(=O)/C(=N/Nc1ccccc1)N1CCCc2ccccc21	.	-16	2054	.	2	.	.
Cn1c(=O)c2ncn(CC(=O)NN=Cc3ccco3)c2n(C)c1=O	6	.	.	6.1	.	-3	-8
CC(C)(C)n1ncc2c(=O)n(Cc3ccc(Cl)c(Cl)c3)cnc21	10	-13	3961	4.5	-3	13	4
CCOCCCN1CN(Cc2ccco2)CNC1=S	-5	-11	4161	3.1	1	8	3
COc1cccc(-c2ncc3ccccc3c2COC(=O)c2cccc(Br)c2)c1	9	-9	4128	-1.2	.	20	3
CCOC(=O)N1CCN(C(=O)CCNS(=O)(=O)c2ccc3c(c2)c(=O)n(C)c(=O)n3C)CC1	7	-19	4582	2.1	2	8	-4
COC(=O)C(C)Sc1nc2c([nH]c3ccccc32)c(=O)n1C (stereo unspecified)	1	-2	3286	7.3	1	15	7
Cn1c(C(O)c2ccccc2)nc(Cl)c1Cl (stereo unspecified)	11	-12	8333	3.5	-7	9	2
CC(O)C1CNCCN1CCc1cc(C(F)(F)F)cc(C(F)(F)F)c1 (stereo unspecified)	4	.	.	3.8	.	4	11
CCOc1ccc(S(=O)(=O)Nc2cccc(C(=O)NCC(c3ccco3)N(C)C)c2)cc1 (stereo unspecified)	3	-28	?	-1.7	1	1	-2
CCCc1nn(C)c2c(=O)[nH]c(-c3cc(S(N)(=O)=O)ccc3OCC)nc12	3	-7	3973	1.9	-1	4	5
CCOC(=O)c1ccc2nc(C)c(CC)c(Cl)c2c1	14	-21	5128	3.9	-10	-7	5
Cc1cccc(C(=O)Nc2ccccc2N2CCN(c3ccc(F)cc3)CC2)c1	13	-8	4131	0.2	1	-7	5
Cc1cccc(C)c1NS(=O)(=O)c1ccc2c(c1)C(=O)c1ccccc1C2=O	6	-26	1939	39	6	12	7
O=C(COc1ccccc1)Nc1ccccc1N1CCN(c2ccc(F)cc2)CC1	7	-17	5360	0.8	3	6	-1
CC(C)CN(C(=O)CSc1nncn1-c1ccccc1)c1c(N)n(CC(C)C)c(=O)[nH]c1=O	3	-7	3105	1.7	-6	6	-3
CC1CN(C(C)CO)C(=O)c2cccc(NC(=O)CCC(F)(F)F)c2OC1CN(C)S(=O)(=O)c1ccc(F)cc1 (stereo unspecified)	1	.	.	3.8	.	5	4
CCOc1ccc(S(=O)(=O)N2CCOCC2)cc1NC(=O)c1ccccc1F	4	-7	3750	4.1	4	8	1
Cc1cccc(OCc2nc(-c3ccc(Br)o3)no2)c1	5	-16	4233	24	-6	-1	1
Cc1ccccc1NC(=S)N(C)C1(c2ccccc2Cl)CCCCC1=O (stereo unspecified)	2	-15	23061*	2.9	-2	4	1

Reprinted from the part before: four compounds; new compounds follow.
SMILES	Sa ugtP lethal	PrP 5UTR inh	Autofluor counter	RN4220 kill	BJeLR lethal	Mtb hypoxia inh	Mtb hypoxia inh growth
CC1CN(C(C)CO)C(=O)c2cccc(NC(=O)CCC(F)(F)F)c2OC1CN(C)S(=O)(=O)c1ccc(F)cc1 (stereo unspecified)	1	.	.	3.8	.	5	4
CCOc1ccc(S(=O)(=O)N2CCOCC2)cc1NC(=O)c1ccccc1F	4	-7	3750	4.1	4	8	1
Cc1cccc(OCc2nc(-c3ccc(Br)o3)no2)c1	5	-16	4233	24	-6	-1	1
Cc1ccccc1NC(=S)N(C)C1(c2ccccc2Cl)CCCCC1=O (stereo unspecified)	2	-15	23061*	2.9	-2	4	1
CC(Sc1n[nH]c(N)n1)C(=O)Nc1ccc(Cl)cn1 (stereo unspecified)	4	-5	3231	12	6	0	-6
CCCCn1c(N)c(N(CC(C)C)C(=O)c2cccc(S(=O)(=O)N3CCCCCC3)c2)c(=O)[nH]c1=O	0	-11	4405	0.9	3	-6	-1
O=C(CSc1nnnn1-c1cccc2c1CCCC2)NC1CCCC1	-11	-26	2956	11	1	-4	4
Cc1ccc(C)c(NC(=O)COC(=O)c2nc(Cl)ccc2Cl)c1	-5	-8	8380	-3.5	.	3	16
CC(/C=C/c1ccc2c(c1)OCO2)=N/NC(=O)CNc1ccc(C)cc1	.	-20	8297	.	-2	.	.
COc1ccc(C)cc1NC(=O)CCNS(=O)(=O)c1cccc2nonc12	-5	-6	5698	-0.3	-7	-15	7
CCC(C)n1c(SC(C)C#N)nc2ccccc2c1=O (stereo unspecified)	13	-19	9779	3.1	-6	6	13
O=C(O)CCC(C(=O)O)n1c(O)c(C2=c3ccccc3=NC2=O)sc1=S (stereo unspecified)	4	-18	4529	0.3	-1	.	.
c1ccc(OCCSc2nc3ccccc3[nH]2)cc1	0	-44	3013	8.8	8	8	5
CCCOc1ccccc1C(=O)NC(CO)C(=O)O (stereo unspecified)	8	9	?	1.9	7	18	1
CC1Cc2nc(SCC(=O)NCC3CCCO3)n(-c3ccc(F)cc3)c(=O)c2S1 (stereo unspecified)	10	-15	4484	4.1	-5	-7	-5
O=C(NC1CCCc2ccccc21)C1CCN(c2nnc(-n3cccc3)s2)CC1 (stereo unspecified)	10	-21	5338	0.8	-3	15	7
CCOC(=O)Cc1csc(N/N=C/c2ccccc2)n1	.	8	2518	.	7	.	.
CCCn1c(-c2ccccc2)nc2c(=O)n(C)c(=O)[nH]c21	-5	4	2560	-13	-4	-3	6
COc1c(Cl)cc(Cl)cc1C(=O)Nc1ccc(CN2CCCCC2)cc1	-1	-17	4571	-0.6	0	12	13
O=C(CO/N=C/c1ccccc1Cl)N1CCCc2ccccc21	.	-13	2320	.	2	.	.
Cc1[nH]nc2c1C1(CCN(Cc3ccccc3)CC1)C(C#N)=C(N)O2	6	-18	2308	3.8	-9	.	.
Cc1cc(C)nc(SCc2ccc(C(=O)N/N=C3\CC(C)CC(C)(C)C3)cc2)n1 (stereo unspecified)	.	-2	10371	.	1	.	.
COc1cc(C2CC(=O)Oc3cc(C)c(Cl)c(C)c32)cc(OC)c1OC (stereo unspecified)	2	-14	3126	6.6	.	1	-1
Cc1ccc(-n2nc(C(=O)c3ccccc3)n3c(=O)c(Cc4ccccc4)nnc23)cc1	-9	-21	10540	-2.0	6	-4	-7
COc1ccc(S(=O)(=O)Nc2ccc(-n3cccc3)cc2)cc1	3	-12	4704	0.7	12	-3	-4
COc1ccc(/C=C/C(=O)N2CCN(c3ccccn3)CC2)c(OC)c1OC	6	-25	3702	12	9	16	13
Cc1occc1-c1nnc(SCC(=O)Nc2nc3ccccc3s2)o1	-6	6	19093*	1.5	13	2	3
CCOc1cc(C=NNC(=O)c2ccc(NC(=O)C(C)(C)C)cc2)ccc1OC(=O)c1ccc(OC)cc1	-2	.	.	3.5	.	2	3
O=C(O)c1ccccc1C(=O)N(c1ccccc1)c1ccccc1	-2	-11	4093	0.6	-5	.	.
CCn1cc(C(=O)OCc2ccc(F)cc2)c(=O)c2ccc(C)nc21	-13	-13	9606	-3.8	0	-7	5
CC(=O)c1ccc(NC(=O)c2ccc3nc(-c4ccco4)c(-c4ccco4)nc3c2)cc1	-12	-23	3806	22	-5	.	.
COCCNC(=O)Cn1nc(-c2ccccc2OC)ccc1=O	0	-27	22415*	0.7	14	4	5
COc1ccc(N2CCN(C3CCCN(C(=O)C4=C(C)OCCO4)C3)CC2)cc1 (stereo unspecified)	12	-12	5901	3.8	2	3	-1
CC(C)CNC(=S)NNC(=O)c1nn(C)cc1Cl	-5	-27	8816	3.0	-20	9	4
O=C(NCc1ccccc1)C(c1c(F)cccc1Cl)N(C(=O)c1csnn1)C1CC1 (stereo unspecified)	2	-27	3630	-2.9	-4	-8	-3
O=C(C1COc2ccccc2O1)N1CCOCC1 (stereo unspecified)	-2	-13	2887	4.8	15	25	28
OC(c1cc(C(F)(F)F)nc2c(C(F)(F)F)cccc12)C1CCCCN1 (stereo unspecified)	5&8	-13	4396	3.7&-6.8	.	.	.
Cc1ccc(S(=O)(=O)CCC(=O)Nc2nccs2)cc1	6	-2	2607	16	.	-1	2
CC(C)NC(=O)NC(=O)CSc1ccc(S(=O)(=O)N2CCOCC2)cn1	-5	-5	4213	0.2	.	-1	-10
Cc1sc2ncn(CC(=O)Nc3cccc(S(N)(=O)=O)c3)c(=O)c2c1-c1ccccc1	7	-2	5122	-2.3	7	6	-4
COc1ccc(CN(C)CC(=O)NC(=O)Nc2ccccc2F)cc1	2	-10	6047	0.4	.	-5	2
Cc1ccc(C)c(OCC(=O)NCC(c2ccco2)N2CCCCC2)c1 (stereo unspecified)	-1	-13	?	4.7	11	5	-3
CCN(CC)CCN1C(=O)Cn2c(C)c(C)c3cccc1c32	2&-1	-15&-21	2577&9351	4.7&0.0	-6&-2	20&6	2&-8
O=C(C1CCCO1)N(c1ccc(F)cc1)C1C=CS(=O)(=O)C1 (stereo unspecified)	0	-14	3827	-1.8	7	1	-1
CCOc1ccc(C2=Nn3c(nnc3-c3ccccn3)SC2)cc1	-8	-26	3895	4.8	3	4	7
CCc1sc(C(=O)N2CCC3(CC2)OCCO3)cc1Br	6	-14	10912	6.8	1	10	14
COc1cccc(CNC(=O)c2cccc(NC3=NC4CS(=O)(=O)CC4S3)c2)c1 (stereo unspecified)	-2	-18	6270	-2.1	-7	-3	0
CSc1cccc(NC(=O)CSc2nc3ccccc3o2)c1	6	-24	10436	-3.3	1	-2	2
CCn1c(SCC(=O)NCc2cccs2)nc2c1c(=O)n(C)c(=O)n2C	-4	-21	9417	-0.1	-2	10	8
COc1cc(NC(=O)c2sc3nc(C)nc(N4CCOCC4)c3c2C)cc(OC)c1OC	6	0	5385	0.9	-5	-4	8
N=C1C(c2ccccc2)=C(O)CN1CCCO	-2	-18	2265	2.6	-11	9	-8
O=C(Nc1nnc(SCc2ccccn2)s1)C1CC(=O)N(c2ccccc2)C1 (stereo unspecified)	-3	-4	10565	6.6	9	2	3
CNc1nc(-c2ccccc2)cc(C)c1S(C)(=O)=O	.	-11	4494	.	-3	.	.
COc1ccc(C(=O)Nc2ccc(NC(C)=O)cc2)cc1S(=O)(=O)N(C)Cc1ccccc1	3	-15	8861	2.4	.	3	5

(cont.)
SMILES	Sa ugtP lethal	PrP 5UTR inh	Autofluor counter	RN4220 kill	BJeLR lethal	Mtb hypoxia inh	Mtb hypoxia inh growth
COc1cc(OC)cc(C(=O)N[C@H](C(=O)OCC(N)=O)C(C)C)c1	4	-12	2545	6.0	-1	3	3
COc1ccc(C(=O)Nc2cccc3c2C(=O)NC3=O)cc1S(=O)(=O)N1CCOCC1	-10	2	3692	-3.1	-5	-5	6
CCN(CC)CCOC(=O)c1ccc(NC(=O)C2(c3ccccc3)CCCC2)cc1	-1	-16	4295	2.4	-7	-1	-2
CCCN(C(=O)c1ccc(OCC(C)C)cc1)c1c(N)n(Cc2ccccc2)c(=O)[nH]c1=O	0	-4	?	1.8	6	0	-1

Hits appear at their usual frequency; 3.9% or so of the library scored in one or more.
